Beta2AR agonist: beta2AR agonists driving receptor internalization, primary screen, cell-based, FAP fluorogen, flow cytometry; Beta-2 adrenergic receptor (Homo sapiens), P07550; Am2.2-beta2AR cells; reference of the scale not given here; hit rate 0.43% among 340,000; response, % (no concentration beside the values);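 active = response above a set limit, near 3 SD of response in nonfluorescent compounds, cut at about 42% in these data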;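 note: stock transfer was 100 nL into about 11 µL; a reference agonist was the positive control; negative values mostly stem from fluorescent compounds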
Target sequence (P07550 whole entry, looked up): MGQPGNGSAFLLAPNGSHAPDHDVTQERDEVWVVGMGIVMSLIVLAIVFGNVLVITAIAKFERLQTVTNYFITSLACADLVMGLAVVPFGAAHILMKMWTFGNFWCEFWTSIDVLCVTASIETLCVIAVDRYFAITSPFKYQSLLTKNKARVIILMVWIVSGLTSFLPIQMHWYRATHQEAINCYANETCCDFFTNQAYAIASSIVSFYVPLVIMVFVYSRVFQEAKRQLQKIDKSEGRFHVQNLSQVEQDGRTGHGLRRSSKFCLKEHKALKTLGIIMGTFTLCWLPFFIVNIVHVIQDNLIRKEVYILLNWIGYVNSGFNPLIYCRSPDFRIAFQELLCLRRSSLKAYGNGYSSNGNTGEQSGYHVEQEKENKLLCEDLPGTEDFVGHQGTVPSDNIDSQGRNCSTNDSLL
LANA-H2A inh: blockers of LANA interaction with H2A/H2B – biochemical, FP readout, HTS, primary screen; cell-free LANA-H2A/H2B peptide, fluorescence polarization; hit rate 0.6% among 320,000; Protein LANA1 (Human herpesvirus 8 type P (isolate GK18)), Q9QR71; inhibition, % (concentration not given with the values); in the data active = inhibition mostly above about 10%, no sharp cut-off; inactive = mostly below about 6.7%;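 note: stock transfer was 7.5 nL into about 10 µL; 0% = median of vehicle wells and 100% = median of positive control wells; one replicate is shown; the record names a cut of 25% in any replicate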
RanGTP-Impb inh: inhibitors of RanGTP-importin-beta interaction, primary screen, biochemical, FRET, CFP-Ran, YFP-importin-beta, homogeneous | cell-free CFP-Ran/YFP-importin-beta FRET ratio | inhibition, % (test concentration not listed) | hit rate 1.1% among 300,000 | AID 2216, 2009;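 active = most replicates above 15%; inconclusive = exactly half above 15%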;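 note: 0% = DMSO wells and 100% = Ran loaded with GDP instead of GTP; wells of about 40 µL received 100 nL stock; the first replicate is given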
ALR inh: inhibitors of human ALR sulfhydryl oxidase, primary screen, biochemical, H2O2 detection, HRP-luminol luminescence, single point; inhibition, % (concentration not given with the values); hit rate 3.8% among 290,000; purified ALR, DTT oxidation;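 active = mean and each replicate at 75% or more; inconclusive = only one of the two met; inactive = neither met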;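 note: stock transfer was 7.5 nL into about 7.5 µL; 0% = neutral wells and 100% = wells with inactivated enzyme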
Target sequence (P55789 whole entry, looked up): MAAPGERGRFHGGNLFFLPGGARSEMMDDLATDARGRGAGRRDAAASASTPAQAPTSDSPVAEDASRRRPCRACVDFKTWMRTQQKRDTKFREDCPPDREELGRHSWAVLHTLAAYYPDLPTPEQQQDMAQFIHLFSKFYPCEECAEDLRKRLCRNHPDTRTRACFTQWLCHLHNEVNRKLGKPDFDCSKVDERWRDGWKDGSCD
HNF4A DNA FP: change in binding of human HNF4A to DNA, primary screen, biochemical, fluorescence polarization, FITC-DNA; AID 1224865, 2016; activity change, % at 10 µM; 1 h; hit rate 0.3% among 360,000; Hepatocyte nuclear factor 4-alpha (Homo sapiens), P41235; in the data active = activity change above about 30%, passing the limit was not always enough;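 note: controls were the assay level and a saturating level of protein; the project sought stronger binding though the title names inhibitors; some compounds called inactive have numbers as strong as hits; positive values seem to mean higher polarization but the record does not say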
Calb FLC: C. albicans growth inhibition with fluconazole, primary screen, CaCi-2 strain, Alamar Blue fluorescence | C. albicans CaCi-2 (fluconazole-resistant clinical isolate) + fluconazole, 48 h | growth inhibition, % (test concentration not listed) | hit rate 0.57% among 300,000;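 active = most replicates above 75%; inconclusive = exactly half above 75%; inactive = most below 75%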;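 note: all wells also contain fluconazole at 8 µg/ml as a sub-toxic cotreatment; 0% = median of DMSO wells and 100% = median of geldanamycin control wells; wells of about 8 µL received 7.5 nL stock; the first replicate is given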
Vif A3G: inhibitors of Vif binding to APOBEC3G peptide, primary screen, biochemical, TR-FRET, GST-Vif 1-94, biotin-A3G peptide, dose response retest (AID 1117319) | Virion infectivity factor (Human immunodeficiency virus type 1 group M subtype B (isolate … | inhibition, %, or IC50 in µM where a hit was titrated | hit rate 0.57% among 260,000 | TR-FRET GST-Vif / biotin-A3G peptide binding; higher % means a stronger effect; test concentration not given here; strong numbers were not always called active;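 active = above the screen mean plus three standard deviations and confirmed in dose response; inconclusive = results disagree or hit not tested in dose response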;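 note: Vif residues 1-94 fused to GST binding biotinylated APOBEC3G peptide 110-148; 0% = full assay without inhibitor and 100% = GST in place of GST-Vif; retest series ran down from 100 µM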
Numbers without * were called inactive; i = inactive; ? = inconclusive; . = no result given; & = joins results of further samples.

compound	Beta2AR agonist	Vif A3G	HNF4A DNA FP	RanGTP-Impb inh	LANA-H2A inh	Calb FLC	ALR inh
Fc1ccc(-[n+]2nc(Nc3ccccc3)sc2-c2c3ccccc3cc3ccccc23)cc1	32	.	0.1	-3.0	7.3	17	-5
COc1cc(OC)cc(C(=O)N[C@H](C(=O)OCC(=O)Nc2ccc3c(c2)OCO3)C(C)C)c1	6	2%	2.7	.	3.6	.	0
COc1ccc(CC(=O)N(Cc2ccccc2)c2cccc(C)c2)cc1OC	-4	.	2.8	-0.6	8.3	16	-17
Cc1ccccc1C(=O)N1CCC(C(=O)N2CCN(c3ncccn3)CC2)CC1	-2	.	1.4	.	-1.0	.	-5
O=C(O)Cn1cnc2scc(-c3cccs3)c2c1=O	8	.	-4.0	-0.9	0.1	-1	-4
CCN(CC(=O)Nc1ccccc1OC)C(=O)CCOc1ccc(C(C)(C)C)cc1	3	3%	-1.8	.	1.2	-3	1
Cc1nc2c(cc1N)nc(C)n2Cc1ccccc1	3	.	0.3	1.8	0.4	-3	9
COc1ccc(C(=O)Nc2ccc(NC(=O)C3CC3)nc2)cc1	-8	.	-1.2	-1.9	-1.3	-9	.
Cc1ccc(CNC(=O)CSCC(=O)O)cc1	7	-8%	-0.6	0.1	3.6	6	-1
CCOC(=O)c1cc2sccc2n1CC(=O)c1ccc2c(c1)OCCO2	21	?	3.1	0.4	7.8	-5	-3
O=C(CN(Cc1ccc(Cl)c(Cl)c1)S(=O)(=O)c1ccccc1)N/N=C\c1ccc2c(c1)OCO2	-13	0%	-2.5	5.0	5.5	-2	-2
COc1ccc(NC(=S)Nc2ccccc2C(F)(F)F)cc1	-8	-1%	-4.1	1.3	-1.4	10	-7
CCC(C)Nc1c([N+](=O)[O-])cc(C)cc1[N+](=O)[O-] (stereo not given)	4	0%	-2.2	-1.7	-5.2	0	-5
Cc1onc(C(=O)N2CCOCC2)c1[N+](=O)[O-]	9	.	-4.0	1.6	-7.7	-14	-8
O=C(N[C@@H](Cc1ccccc1)C(=O)NCCc1c[nH]c2ccccc12)c1ccco1	-1	.	2.6	3.9	-1.0	-3	20
Cc1ccsc1C(=O)OCC(=O)NCc1ccccc1	4	2%	-1.3	.	-3.9	.	0
COCCOC(=O)CC1=NC(=O)CS1	-2	72%	1.1	?	1.9	-2	.
Cc1ccccc1-c1cc2nc(-c3ccc([N+](=O)[O-])cc3)cc(=O)n2[nH]1	8	17%	-3.7	-4.1	-1.3	0	3
CCc1ccc(NC2CC(=O)N(c3ccc(OC)cc3OC)C2=O)cc1 (stereo not given)	12	5%	4.3	.	1.6	.	-1
COc1ccc(OCCCC(=O)Nc2ccc(OC)c(S(=O)(=O)N3CCOCC3)c2)cc1	-5	-13%	-0.8	.	i	.	2
Cc1cccc(NC(=O)CSc2nnc(CNC(=O)c3ccc(S(=O)(=O)N(C)C)cc3)n2-c2ccc(F)cc2)c1	0	13%	-0.3	4.8	4.0	4	-10
COC(=O)C1CCN(C(=O)c2ccccc2Oc2ccccc2)CC1	0	1%	2.3	-1.4	-0.3	-2	-8
Cc1ccc(C2C(C#N)=C(N)Oc3cc(N)ccc32)cc1 (stereo not given)	9	.	3.4	90*	0.6	-10	96*
CCOC(=O)c1[nH]c(C)c(C(=O)N2CCN(C(=O)OCC)CC2)c1CC	0	9%	0.3	-1.8	-1.9	-1	0

An excerpt of the results above:
compound	Beta2AR agonist	Vif A3G	HNF4A DNA FP	RanGTP-Impb inh	LANA-H2A inh	Calb FLC	ALR inh
CCC(C)Nc1c([N+](=O)[O-])cc(C)cc1[N+](=O)[O-] (stereo not given)	4	0%	-2.2	-1.7	-5.2	0	-5
Cc1onc(C(=O)N2CCOCC2)c1[N+](=O)[O-]	9	.	-4.0	1.6	-7.7	-14	-8

Additional structures
compound	Beta2AR agonist	Vif A3G	HNF4A DNA FP	RanGTP-Impb inh	LANA-H2A inh	Calb FLC	ALR inh
CCOc1ccccc1NC(=O)Nc1c(C)n(-c2ccccc2)c(=O)n1C	-13	1%	0.4	-0.8	-9.4	3	-7
c1ccc2sc(NC3=NCN(C4CCCCC4)CN3)nc2c1	2	1%	2.1	.	-3.2	-9	3
c1ccc(-c2ccc(C3=Nn4c(nnc4-c4cccs4)SC3)cc2)cc1	4	-5%	1.1	0.6	-0.5	14	.
CCc1nc(NCc2ccccc2)c(C#N)c2c1CCCC2	-1	-5%	-0.7	5.7	5.9	-2	-15
CCC(=O)N1N=C(c2ccc(C)o2)CC1c1ccc(N(C)C)cc1 (stereo not given)	-21	5%	2.1	-3.4	0.9	-14	31
Cc1ccc(C(=O)NNc2cc(N3CCCC3)nc(N3CCCC3)n2)cc1	.	13%	.	?	4.3	-20	-51
COc1ccc(CN(C)S(=O)(=O)c2ccc3c(c2)OCCO3)cc1	1	-4%	-0.6	-0.7	-4.6	11	-10
Fc1ccccc1-c1n[nH]c(=S)n1/N=C/c1c[nH]c2ccccc12	2	.	2.9	0.9	4.6	-6	.
CCC(=O)Nc1nnc(SCc2cccc(F)c2)s1	-1	5%	-0.1	4.5	1.7	-9	.
CCOc1ccccc1NC(=S)Nc1ccc2cn[nH]c2c1	18	12%	2.7	-1.9	.	1	.
COc1ccc(C(=O)O)cc1NC(=S)NC(=O)/C=C/c1ccc(C(C)C)cc1	18	-1%	-6.6	1.1	2.5	-12	97*
CCn1c(=NC(=O)C2COc3ccccc3O2)sc2c(C)ccc(OC)c21 (stereo not given)	-1	-35%	0.8	0.8	3.3	4	.
O=C(c1cccc(F)c1)N1CCN(Cc2c[nH]c3ccccc23)CC1	-4	4%	6.5	5.8	-10	-9	33
O=C(Nc1cccc2cccnc12)c1ccc(Br)o1	2	-2%	1.8	7.6	1.6	-25	1
CNC(=O)Nc1ccc(Cl)cc1	3	-2%	-1.5	0.7	-0.1	-5	1
CN(C)c1ccc(/C=N/NC(=O)c2cnc3ccccc3c2)cc1	-6	4%	1.3	1.4	1.7	-2	14
Cc1cc(C)c(C)c(N=Nc2nc3ccccc3n2C)c1C	15	?	-1.3	?	1.4	28	21
CC(NC(=O)c1ccc(CS(=O)(=O)c2cccc(C(F)(F)F)c2)o1)c1ccc2c(c1)OCCO2 (stereo not given)	-4	?	0.0	-2.1	1.2	4	-10
COc1ccc(CCOC(=O)c2ccc(NC(=O)CC#N)cc2)cc1	15	-2%	0.5	-0.2	-19	6	89*
Cc1ccc(NC(=O)CNc2ccccc2N2CCCC2=O)cc1S(=O)(=O)N1CCCCC1	11	.	3.8	.	4.7	.	6
CC(C)N1CCc2c(sc(NC(=O)c3ccc(S(=O)(=O)N4CCc5ccccc54)cc3)c2C(N)=O)C1	-176	-4%	53*	90*	-24	25	-18
CCC(CC)C(=O)N1N=C(c2ccc(NS(C)(=O)=O)cc2)CC1c1ccc(C)cc1 (stereo not given)	-1	?	4.8	3.6	-2.6	-8	-11
Nc1ncnc2nc(SCCOc3ccc(Cl)cc3)[nH]c12	12	17%	2.8	0.3	2.6	2	-1
N=C1C(c2ccccc2)=C(O)CN1c1cccc(S(=O)(=O)N2CCCCC2)c1	6	11%	1.0	2.5	9.8	?	4
N#Cc1c(-n2cccc2)cccc1-n1cccc1	-3	-1%	-0.7	2.5	-4.5	-28	-10
CC(C)CCOc1ccc(C(=O)NCC(c2cccs2)N2CCOCC2)cc1 (stereo not given)	-5	-5%	1.5	-0.3	-2.6	18	-2
CCOC(=O)Cc1c(C)nc2c(-c3ccccc3)cnn2c1C	-2	2%	2.3	1.0	-4.0	17	1
O=C(COc1ccc(F)cc1Br)NCc1nnc2ccccn12	-9	.	0.1	.	-2.6	.	-5
COc1cc(Cn2c(N)c(C#N)c3nc4ccccc4nc32)cc(OC)c1	-11	11%	3.5	38*	-2.6	34	0
C=CCn1c(SCC(=O)c2ccc(OC)cc2)nnc1C(C)NC(=O)c1cccs1 (stereo not given)	2	7%&-8%	5.3	-2.1	-3.5	-15	27
CCOC(=O)N1CCN(C(=O)c2cc(COc3ccc(OC)cc3Cl)on2)CC1	0	0%	7.1	3.8	-0.9	9	2
CCCCCCc1ccc(-c2ncc(N)cn2)cc1	-14	0%	5.5	2.0	-6.2	5	.
COc1cccc(CNC(=O)C2CCCN(C(=O)c3ccc(Cl)cc3)C2)c1 (stereo not given)	-1	8%	-1.3	.	.	.	.
Cn1c(SCC(=O)N2CCCc3ccccc32)nc2cccnc21	8	4%	1.5	2.0	1.0	2	10
Oc1c(Br)cc(Br)cc1CNc1ccc(F)cc1	4	-3%	0.2	-10	1.4	34	98*
O=C(Nc1cnn(C23CC4CC(CC(C4)C2)C3)c1)c1cnn2cccnc12	-4	0%	-1.4	0.5	-1.2	-15	0
COc1ccc(-c2cc(-c3nnc(COC(=O)c4ccncc4)o3)c3ccccc3n2)cc1OC	0	5%	4.3	1.2	0.0	3	-5
COc1cc(CNCc2ccc(OC)c3ccccc23)cc(OC)c1OC	1	.	6.0	-2.4	-3.0	-9	-6
COc1ccc(N2CCN(CC(=O)Nc3ccc(SC(F)F)cc3)CC2)cc1	4	27%	-0.3	?	-1.4	-17	42
COc1ccc(-c2nn(-c3ccccc3)cc2C(=O)NCC(c2cccs2)N2CCOCC2)cc1 (stereo not given)	-5	-2%	3.2	-0.7	-2.1	7	-6
O=[N+]([O-])c1cccnc1Oc1cccnc1	-2	-10%	-2.0	-4.9	9.2	-1	-15
COc1ccc(C(=O)Nc2ccc(-c3n[nH]c(=S)o3)cc2)cc1	1	-3%	5.9	3.0	2.9	0	-1
COc1ccc(C(CNC(=O)c2ccc(S(=O)(=O)Nc3ccc(F)cc3)cc2)N(C)C)cc1 (stereo not given)	4	9%	-0.3	-0.5	2.0	-2	-6
Cc1ccc(C)c(S(=O)(=O)N/N=C/c2cccnc2)c1	0	-5%	-1.6	-1.9	-1.7	-3	1
O=C(CCNC(=O)c1ccc(Cl)cc1)Nc1ccc(Cl)cc1F	-1	.	-1.7	-2.3	0.2	2	1
COc1ccccc1NC(=S)NCc1ccc(S(N)(=O)=O)cc1	10	.	-1.1	0.4	4.1	9	-1
Cc1ccc(C)c(-n2nnnc2Sc2nnnn2-c2ccccc2)c1	3	-10%	-3.7	-3.6	0.8	7	-2
COc1ccc(CCNC(=O)c2ccc(-c3ccc([N+](=O)[O-])cc3)o2)cc1OC	15	.	2.2	-7.4	1.6	-3	15
Cc1cc(C)cc(NC(=O)CSc2nnc(-c3ccncc3)o2)c1	-1	3%	-1.9	-0.2	2.6	6	?
CCOC(=O)Cn1c2ccccc2c2nc3ccccc3nc21	-8	2%	1.1	1.7	-1.9	14	.
Cc1ccc(C2=NN(CCC#N)C(=O)CO2)cc1	-5	-3%	-1.1	-3.8	-2.5	1	.
O=C(O)c1ccccc1N(Cc1ccccc1)C(=O)COc1ccccc1	6	-2%	-3.3	5.2	0.9	-6	-4
CSc1ccccc1NC(=O)CSCc1ccc(C)cc1	4	3%	1.2	1.2	0.0	1	-11
C(#CCN1CCCC1)CC(c1ccccc1)c1ccccc1	8	-8%	1.1	-1.9	-0.1	-34	4

Bioassay records: PubChem, several laboratories
